2A StopGo: lowers the luciferase signal of an FMDV 2A StopGo reporter | human cells with a luciferase reporter of 2A StopGo recoding; control for the full effect not named in the record | hit rate 1.2% among 410,000 | Potency, µM (highest dose often 57.9 µM), for inactives: at the highest dose signal change, negative = less light; active = well fitted falling curve with a large enough effect; inconclusive = small, poorly fitted or top-dose-only effect; inactive = no such curve, though single readings can be large or run the other way; tested in HEK293T cells; also: % is scaled to controls: 0 for no effect and ±100 for the full control effect; nearly all actives have a fitted effect of over 45% in size; luciferase light after 4 h
MARV entry inh: inhibitors of Marburg virus binding or cell entry | Marburg virus pseudotyped entry inhibition, cell reporter; control for the full effect not named in the record; about a third of the inactives were read at about 46 µM | Potency, µM (series often up to 37.8 µM), for inactives: at the top dose activity change, negative = inhibition, usual class: inhibitors | hit rate 1.8% among 300,000 | AID 540276; active = well fitted inhibition curve with a large enough effect; inconclusive = small, poorly fitted or top-dose-only effect, or effect the other way; inactive = flat fitted curve, though single readings scatter; tested in HEK293 cells; about a fifth of its hits are not listed in these tables; also: % is scaled to controls: 0 for no effect and ±100 for the full control effect; luciferase read-out
LASV entry inh: Lassa virus entry inhibition | hit rate 1.2% among 300,000 | Potency, µM (series often up to 37.9 µM), for the others: at the top dose activity change, negative = inhibition, most hits filed as inhibitors | Lassa virus pseudotype entry inhibition, cell reporter; control for the full effect not named in the record; active means well fitted inhibition curve with a large enough effect; inconclusive means small, poorly fitted or top-dose-only effect, or effect the other way; inactive means flat fitted curve, though single readings scatter; tested in HEK293 cells; also: % is scaled to controls: 0 for no effect and ±100 for the full control effect; nearly all actives have a fitted effect of over 50% in size; luciferase read-out
Cruzain inh Det: blocks cruzain activity in presence of Triton detergent | purified cruzain, Z-FR-AMC fluorescence, 0.01% Triton | P25779 | AID 1478 | Potency, µM, for inactives: max response, negative = inhibition, hits mostly inhibitors | hit rate 0.43% among 200,000; active = well fitted curve in the direction sought with a large enough effect; inconclusive = small, poorly fitted or top-dose-only effect, or another doubt; inactive = no such curve, though single readings can be large; an effect the other way counts as inactive or inconclusive;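 also: plate controls were neutral wells for no effect and buffer without enzyme for full effect; nearly all actives have a fitted effect of over 40% in size; top concentration of the series not given in the record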
Target sequence (P25779 123-467 limits assumed): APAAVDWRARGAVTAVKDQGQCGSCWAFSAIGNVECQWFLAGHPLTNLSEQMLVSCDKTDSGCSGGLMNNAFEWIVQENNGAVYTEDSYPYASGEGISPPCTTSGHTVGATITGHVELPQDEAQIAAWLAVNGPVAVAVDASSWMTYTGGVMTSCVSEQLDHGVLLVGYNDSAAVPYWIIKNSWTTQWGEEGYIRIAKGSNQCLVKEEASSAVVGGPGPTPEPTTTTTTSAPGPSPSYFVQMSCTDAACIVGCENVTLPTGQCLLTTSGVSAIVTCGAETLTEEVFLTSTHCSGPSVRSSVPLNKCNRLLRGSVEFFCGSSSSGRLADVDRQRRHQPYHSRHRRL
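Detergent-containing run (0.01% Triton X-100) in acetate buffer pH 5.5 with 5 mM DTT: enzyme at 1.5 nM final, 15 min compound preincubation at room temperature, then 2 uM Z-FR-AMC substrate. Activity taken as 60 s fluorescence increase at 360/450 nm.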
NS1 inh: inhibitors of influenza NS1 protein function; hit rate 0.4% among 270,000; S. cerevisiae slowed by influenza A NS1, growth recovery by OD600; AID 2326; Potency, µM (titrated, usually from 46.1 µM), for the others: at the highest dose activity, positive = more growth; also: actives are rising curves; nearly all actives have a fitted effect of over 50% in size
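S. cerevisiae expressing influenza A NS1, grown in glucose, washed, then diluted 1:100 into pH 6.0 -URA galactose medium with 23 nl compound. Growth recovery read as OD600; NS1-free strain serves as control.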
Cruzain inh noDet: cruzain (T. cruzi) inhibition without detergent; P25779; AID 1476; Potency, µM, for the others: max response, negative = inhibition, hits mostly inhibitors; hit rate 2.3% among 200,000; purified cruzain, Z-FR-AMC fluorescence, no detergent; active = well fitted curve in the direction sought with a large enough effect; inconclusive = small, poorly fitted or top-dose-only effect, or another doubt; inactive = no such curve, though single readings can be large; an effect the other way counts as inactive or inconclusive;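 also: plate controls were enzyme without inhibitor for no effect and buffer without enzyme for full effect; nearly all actives have a fitted effect of over 40% in size; top concentration of the series not given in the record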
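Detergent-free condition (0.00005% Triton X-100) in acetate buffer pH 5.5 with DTT. 1.5 nM enzyme and compound were pre-mixed 15 min, then 2 uM Z-FR-AMC substrate added; reaction progress from fluorescence change between first and third reads (60 s).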
SARS PLP yeast: blocks SARS-CoV papain-like protease in a yeast assay; S. cerevisiae expressing SARS-CoV PLpro, growth rescue; control for the full effect not named in the record; Potency, µM (doses to about 32.9 µM), for inactives: at the top dose activity, positive = growth rescue; hit rate 0.19% among 330,000; also: 0% is about no effect; nearly all actives have a fitted effect of over 55% in size; growth read by luminescence after 48 h
RE007 growth inh: less growth of the S. pombe RE007 Vpr strain. Potency, µM (titrated, usually from 92.2 µM), inactives show at the highest dose activity change, negative = less growth. S. pombe RE007 Vpr strain, BacTiter-Glo ATP luminescence, 24 h; control for the full effect not named in the record. hit rate 0.21% among 360,000; active = well fitted falling curve with a large enough effect; inconclusive = small, poorly fitted or top-dose-only effect; inactive = no such curve, though single readings can be large or run the other way;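 also: % is scaled to controls: 0 for no effect and ±100 for the full control effect; nearly all actives have a fitted effect of over 50% in size; the assay follows cell death caused by Vpr and the record does not say whether a fall means rescue or toxicity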
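Fission yeast RE007 carrying one integrated HIV-1 vpr copy, seeded at OD 0.01 in PMG+AL medium with 23 nL pinned compound. Grown 24 h at 30 degrees; viability read by BacTiter-Glo luminescence after 5 min.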
An asterisk follows results filed as active; ? = inconclusive; . = not tested or not shown; & = joins results of further samples; [ ] = another dose, or the depositor's remark. Unless noted, calls follow the shape of the dose curve; as a rule, active means well fitted rising curve with a large enough effect; inconclusive means small, poorly fitted or top-dose-only effect; inactive means no such curve, though single readings can be large or run the other way. Potency is read from the fitted curve at half-maximal effect.

SMILES	2A StopGo	MARV entry inh	LASV entry inh	Cruzain inh Det	NS1 inh	Cruzain inh noDet	SARS PLP yeast	RE007 growth inh
Cc1cccc(N2CCN(C(=O)COc3ccc4c(C)cc(=O)oc4c3C)CC2)c1C	?	?	?	.	6%	.	-8%	5%
CC1(C)CC2CC(C)(CN2C(=O)c2cc(-c3ccc(F)cc3)on2)C1 (stereo not given)	-5%	5%[46.1 µM]	?	.	4%	.	0%	4%
COc1ccc(NC(=O)C2CC(c3ccc(Cl)cc3)=NO2)cc1 (stereo not given)	-8%	-7%[46.1 µM]	1%[46.1 µM]	.	8%	.	9%	1%
CCc1ccc(NC(=O)CN2C(=O)C(c3ccc(F)cc3)=NC2(C)C)cc1	14%	-12%[46.1 µM]	29%[46.1 µM]	-4.8%	.	3%	.	.
CC(=O)N/C(=C\c1ccccc1)C(=O)OC/C=C/c1ccccc1	5%	0%[46.1 µM]	11%[46.1 µM]	.	-15%	.	-12%	18%
Cc1onc(-c2ccccc2Cl)c1C(=O)Nc1nnc(-c2cccc([N+](=O)[O-])c2)s1	-9%	-2%	.	3.7%	10µM*	-15%	-12%	13%
O=C1CC(c2ccccc2)CC(O)=C1C=NCCN1CCN(C(=S)Nc2cccc(Cl)c2)CC1 (stereo not given)	.	10%	-13%	-6.2%	-36%	9%	-10%	10%
Fc1ccc(-c2nnc(-n3nnc4ccccc43)c3ccccc23)cc1	23%	0%	1%	.	.	.	.	7%
NC(N)=NS(=O)(=O)c1ccc(NC(=S)NC(=O)/C=C/c2ccco2)cc1	-15%	-5%	0%	-4.7%	12%	?	-6%	-12%
Cc1cc(C(=O)C(C)OC(=O)c2ccc(NC(=O)CC#N)cc2)c(C)n1-c1ccccc1 (stereo not given)	16µM*	?	?	.	.	.	7%	9%
COC(=O)C(C)(C)ONC(=O)Nc1ccc(C)cc1	26%	?	26%	2.9%	3%	5%	12%	-4%
FC(F)(F)c1nc(-c2cccs2)ncc1-c1nnnn1-c1ccc(Cl)cc1	11µM*	?	16µM*	-7.2%	-37%	-10%	0%	-3%
COc1ccccc1C(=O)COC(=O)Cn1nc(C)c([N+](=O)[O-])c1C	-15%	-4%	-8%	.	.	.	-7%	8%
CC(C)(C)c1ccc(-c2csc(NNC3=NCCCCC3)n2)cc1	29%	?	?	-3.5%	2%	-20%	-8%	3%
COc1ccccc1NC(=S)NCc1ccc(Cl)cc1	30%[activator]	-24%	-16%	.	6%	.	?	8%
Cc1cccc(C)c1NC(=O)CCCSc1nnc(-c2ccco2)n1-c1ccccc1	?	-25%	?	-1.2%	-13%	-3%	-7%	-10%
CC(C)CC1(C(=O)NCCc2c[nH]c3ccccc23)C=CCN1C(=O)c1ccccc1 (stereo not given)	9%	-33%	-11%	-0.7%&-4.4%	-7%	-7%&-3%	-3%	8%
O=C(CNS(=O)(=O)c1c(F)cc(F)cc1Br)OCC(=O)N1CCCC1=O	-1%	17%	12%	.	.	.	0%	-14%
Cc1ccc(C)c(S(=O)(=O)c2c[nH]c(=S)[nH]c2=O)c1	0%	.	.	.	10%	.	5%	-4%
CC1CCN=C(N)S1 (stereo not given)	-12%	?	21%	8.4%	?	5%	.	10%[18.4 µM]
Cc1[nH]n(-c2ccccc2)c(=O)c1N=Nc1ccc(F)cc1	24%	?	5%[46.1 µM]	.	-8%	.	0%	5%
COc1ccc(OC)c(N2CC(O)=C(c3nc4ccccc4s3)C2=N)c1	7%	?	?	-2.6%	-15%	-13%	5%	18%
Cc1nn(CC(=O)NCCc2ccc(Cl)cc2)c(=O)c2cc3cc(F)ccc3n12	-15%	2%[46.1 µM]	.	0.0%	.	-12%	.	.
Cc1cccc(C)c1OCC(=O)N1CC2(C)CC1CC(C)(C)C2 (stereo not given)	2%	?	-18%	-0.4%	-18%	2%	6%	1%
CCOC(=O)Cn1nnnc1C(CC)N(Cc1cccs1)Cc1cc2cc(C)ccc2[nH]c1=O (stereo not given)	-19%	16µM*	?	-4.0%	-8%	6%	5%	3%
CCC(C)(C)NC(=O)CN(Cc1ccccc1)C(=O)CCC(=O)Nc1nccs1	5%	-2%	-16%	.	3%	.	0%	11%
COc1ccc(-n2nnnc2SCC(=O)Nc2cc(OC)c([N+](=O)[O-])cc2C)cc1	?	.	.	.	1%	.	-1%	3%
COc1ccc(/C(C)=N\NC(=O)c2ccc(-c3ccccc3)cc2)c(F)c1	1%	?	?	.	?	.	18%	-6%
Cc1noc(C)c1S(=O)(=O)N1CCN(c2ccc(Cl)cc2)CC1	-10%	.	.	.	6%	.	-8%	-3%
O=C(CCn1c(=S)oc2ccccc21)Nc1ccccc1F	8%	?	6%	.	.	.	-2%	4%
Cc1cc(C)c(NC(=O)C(C)n2nnc3sc4c(c3c2=O)CCCC4)c(C)c1 (stereo not given)	-18%	-9%[46.1 µM]	24%[46.1 µM]	0.0%	.	3%	.	.
CC1CCN(S(=O)(=O)c2ccc3nc(Nc4cccc(F)c4)ccc3c2)CC1	-11%	.	-21%[46.1 µM]	-4.5%	.	?	.	.
Cc1ccc(C(=O)N[C@H](C(=O)N2CCN(c3ccccc3F)CC2)C(C)C)cc1	?	-11%[46.1 µM]	-5%	.	-4%	.	-1%	-12%
COc1ccc(CNC(C)C(=O)Nc2ccc3ccccc3c2)cc1OC (stereo not given)	-10%	?	-15%	.	.	.	-2%	-11%
COC(=O)CCCCC(=O)OC	-18%	.	.	-5.4%	.	-5%	1%	-2%
CCC(C)NC(=O)CSc1nc2ccsc2c(=O)n1-c1ccc(OC)cc1 (stereo not given)	6%	2%	-7%	-1.9%	-3%	7%	6%	18%
O=C(CCc1nnc(CCc2ccccc2)o1)N1CCCC1c1nccs1 (stereo not given)	20%	.	.	.	-2%	.	-1%	7%
N#Cc1cnc(SCC(=O)Nc2ccccc2C(F)(F)F)nc1N	11%	25%	29%[14.3 µM]	-3.1%	1%	-6%	1%	3%
CCC(=O)N(CCO)Cc1cc2ccc(C)c(C)c2[nH]c1=O	0%	1%	5%	0.9%	1%	2%	10%	0%
O=C(CCCc1ccccc1)Nc1ccnn1C1CCN(Cc2ccccn2)CC1	16%	3%	-8%	.	5%	.	10%	3%
NC(=O)c1ccsc1NC(=O)CN1C(=O)C2CC=CCC2C1=O (stereo not given)	0%	10%	11%	-1.9%	-10%	0%	0%	-1%
O=C(NC1CCCCC1)NC1CCN(CC(=O)N2CCOCC2)CC1	0%	9%	9%	-2.0%	-9%	-9%	-2%	10%
CCc1cccc(C)c1NC(=O)CN(C)Cc1ccccc1F	?	-6%	-11%	-0.9%	-15%	26%	-16%	.
CC(=O)OCCCN(C)CC/C=C1/c2ccccc2CSc2ccccc21	-25%	?	?	.	.	.	.	5%
C/C(N)=C(/C#N)C(=O)COC(=O)CCSc1ccccc1	-4%&-8%	0%&-7%	12%[46.1 µM]	-12%	-10%	-17%	4%	5%&6%
CC1CCCCN1Cc1c(O)ccc2c(=O)c(-c3ccccc3)coc12 (stereo not given)	8%&8%	?	-5%	-7.7%	2%	-13%	4%	2%
CC(C(=O)Nc1ccccc1Br)N1c2cccc3cccc(c23)S1(=O)=O (stereo not given)	18%	?	?	.	0%	.	3%	10%
Cc1ccc(NC(=O)/C(=C\c2cccnc2)NC(=O)c2ccccc2)cc1	-6%	?	0%	.	-6%	.	2%	9%
CCOc1ccc(-c2nonc2NC(=O)c2oc3ccc(C)cc3c2C)cc1OCC	-5%	12%[46.1 µM]	-2%[46.1 µM]	-1.9%	.	-4%	.	.
Cc1ccc(C(=O)CC(Nc2ccc(F)cc2)c2ccccc2)cc1 (stereo not given)	17%	-15%	?	-4.5%	2%	7%	3%	-9%
Cc1ccc(-c2nnc(SCC#N)n2N)cc1	5%	0%[46.1 µM]	?	2.7%	-3%	8%	5%	-1%
CC(C)n1cc(/C=N\NC(=O)c2cc3c(ccc4ccccc43)o2)c2ccccc21	-15%	1%	7%	-19%	13%	5µM*	-2%	3%
c1coc(CNc2nc3nonc3nc2NCc2ccco2)c1	?	?	-10%	-12%	-3%	-6%	-2%	17%
CCOC(=O)c1cc(NC(=O)N2CCOCC2)c(C)nc1C	-20%	?	1%	1.9%	-2%	1%	9%	-5%
N#C/C(=C/c1ccc(-c2cc([N+](=O)[O-])ccc2Cl)o1)C(N)=O	-3%	.	.	.	2%	.	0%	3%
CSc1nsc(SCC(=O)Nc2cccc(C(C)=O)c2)n1	-8%	3%	12%	0.2%	4%	-1%	-6%	6%
CCOC(=O)c1nnn(C(CC)C(=O)Nc2ccc(F)cc2)c1C(=O)OCC (stereo not given)	-27%	-1%[46.1 µM]	20%[46.1 µM]	-0.3%	.	-6%	.	.
Cc1nnc(SCc2cc([N+](=O)[O-])cc3c2OCOC3)[nH]c1=O	-18%	.	.	.	-2%	.	0%	-11%
CC(C)NCC(O)COCCOc1ccc(Br)cc1 (stereo not given)	-3%	?	-3%	-1.2%	-9%	2%	3%	1%
COc1cc(C2OC(=O)C3C(c4ccc(OC(C)=O)c(OC)c4)OC(=O)C23)ccc1OC(C)=O (stereo not given)	17%	3%[46.1 µM]	11%[46.1 µM]	.	.	.	.	5%
c1ccc(-c2ccc(-c3csnn3)cc2)cc1	16%	-16%	-17%	4.2%	-4%	20µM*	-2%	-13%
CN(c1ccc([N+](=O)[O-])cc1C(=O)Nc1ccccc1)C1CCCCC1	-21%	-27%	?	-1.7%	-6%	-3%	-1%	-10%

Entries listed so far that contain a CF3 group, in the order listed:
SMILES	2A StopGo	MARV entry inh	LASV entry inh	Cruzain inh Det	NS1 inh	Cruzain inh noDet	SARS PLP yeast	RE007 growth inh
FC(F)(F)c1nc(-c2cccs2)ncc1-c1nnnn1-c1ccc(Cl)cc1	11µM*	?	16µM*	-7.2%	-37%	-10%	0%	-3%
N#Cc1cnc(SCC(=O)Nc2ccccc2C(F)(F)F)nc1N	11%	25%	29%[14.3 µM]	-3.1%	1%	-6%	1%	3%
